Prx2 Sm inh: Schistosoma mansoni Prx2 inhibition | AID 448 | Potency, µM | S. mansoni Prx2 activity coupled to TGR/GSH (TGR is thioredoxin glutathione reductase), NADPH fluorescence loss, qHTS; some inactives read as strong as hits | 0.07% of 65,000 active; active means full or partial inhibition curve with a strong effect at the top dose; inconclusive means weaker partial or single-point curve; inactive means no accepted curve; further: series up to 57 µM; many of its hits are not listed in these tables
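Activity is read as the drop in NADPH fluorescence (365/450 nm), recorded every 30 sec for 8 min after H2O2 addition. Prx2 is coupled to TGR-driven NADPH oxidation through glutathione, in phosphate buffer pH 7.4.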
LT uptake inh: anthrax lethal toxin internalization inhibition | 0.67% of 70,000 active | Cells, anthrax lethal toxin internalization, FRET ratio (460/530) | Potency, µM (highest dose often 40 µM), inactives show at the highest dose activity change, negative = inhibition, hits mostly inhibitors | AID 912; active = well fitted falling ratio curve with the 530 nm signal flat; inconclusive = other ratio curves, or a change in one channel alone; inactive = flat curves in the ratio and both channels; the % refers to the ratio; further: on the % scale 0 is the no-effect control and ±100 the full control effect; nearly all actives have a fitted effect of over 50% in size; tested in ME-180 cells; beta-lactamase reporter
An asterisk follows results filed as active; ? = inconclusive; . = no result given; [ ] = remark or other dose. Potency means the concentration at half of the fitted maximal effect. Not all compounds are listed. The share of hits here may be higher or lower than overall.

entry | SMILES | Prx2 Sm inh | LT uptake inh
1 | [Cu].[O-]/N=C1/C(=[OH+])Nc2ccccc21.[O-]Nc1c(O)[nH]c2ccccc12 | >57 | -1.2%[8 µM]
2 | CN(C)c1ccc(/C=C2\CCCN=C2c2cccnc2)cc1 | . | 3.7%
3 | CCC1Oc2ccccc2N(CC(=O)Nc2ccc3c(c2)OCCO3)C1=O (configuration not stated) | >57 | ?
4 | Fc1ccccc1OCCSc1nc2ccccc2o1 | >57 | -10.2%
5 | CCOC(=O)N1CCC(n2c(SCC(=O)Nc3ccccc3OC)nc3ccccc3c2=O)CC1 | >57 | ?
6 | COCCn1c(=O)cnc2cnc(OCc3ccccc3)nc21 | >57 | -6.7%
7 | COc1ccc(NC(=O)N(C2CCCCC2)C2CCN(C(C)C)CC2)c(OC)c1 | >57 | ?
8 | COCCCN1C(=O)C(O)=C(C(C)=O)C1c1cccc(F)c1 (configuration not stated) | >57 | -10.5%
9 | CCOC(=O)c1cc2occc2n1CC(=O)Nc1ccc(OC)cc1OC | >57 | -5.0%
10 | C[N+](C)(CCCCCC[N+](C)(C)CCCN1C(=O)c2cccc3cccc(c23)C1=O)CCCN1C(=O)c2cccc3cccc(c23)C1=O | >57 | 12.5%
11 | COc1cc(C2CC(=O)NC(SCC(=O)Nc3ccccc3C)=C2C#N)ccc1O (configuration not stated) | >57 | -4.2%
12 | CCN(Cc1cc2cccc(C)c2[nH]c1=O)C(=O)c1ccccc1OC | >57 | 6.0%
13 | O=C(Nc1cccc(NC(=O)c2cccs2)c1)c1ccco1 | >57 | .
14 | CCn1c(SCC(=O)Nc2ccc(NC(=O)c3ccco3)c(OC)c2)nc2ccccc2c1=O | >57 | -10.2%
15 | O=c1cc(N2CCN(Cc3ccccc3)CC2)[nH]c(=O)n1-c1cccc(C(F)(F)F)c1 | >57 | -7.0%
16 | Cc1noc(C)c1S(=O)(=O)Nc1ccc(C(=O)N2CCc3ccccc3C2)cc1 | >57 | -5.6%
17 | O=C(c1ccccc1)c1nnc(-c2ccccc2F)o1 | >57 | 4.5%
18 | Cc1cc(C)nc(NC(=O)CSc2nnnn2-c2ccccc2)n1 | >57 | -3.1%
19 | COc1ccc(C(OC(=O)c2c(C)noc2C)C(=O)NC2CCCC2)cc1 (configuration not stated) | >57 | 1.2%
20 | c1ccc(OCc2nnc3sc(-c4cccs4)nn23)cc1 | >57 | -15.6%
21 | CC(=O)Nc1ccc(-c2cn3ccsc3n2)cc1 | >57 | .
22 | O=C(CN1CCCC1)NCC12CC3CC(CC(C3)C1)C2 | >57 | .
23 | CCC(=NCc1ccc2c(c1)OCO2)c1c(O)n(C)c(=O)n(C)c1=O | >57 | ?
24 | CC1CCc2c(C(=O)NCCCN3CCOCC3)csc2C1 (configuration not stated) | >57 | -12.2%
25 | Cc1noc(C)c1Cn1nc(C(=O)O)c2ccccc2c1=O | >57 | -8.2%
26 | CC(=O)N1[C@H](C)C=C[C@]1(Cc1ccccc1)C(=O)O | . | -2.6%
27 | O=C(Cn1cnc2c(nnn2Cc2ccccc2F)c1=O)NCc1ccco1 | >57 | 0.9%
28 | Cc1cc(C)c2c(N)c(C(=O)NCc3ccco3)sc2n1 | >57 | -11.1%
29 | Cc1ccc(C)c(S(=O)(=O)Nc2ccc3scnc3c2)c1 | >57 | -4.1%
30 | CSc1nsc(SCC(=O)N2CCc3ccccc32)n1 | >57 | -6.4%
31 | COc1nc2c(C)cccc2cc1-c1noc(-c2ccco2)n1 | >57 | ?
32 | CCn1nnc(NC(=O)c2ccc(C(C)(C)C)cc2)n1 | >57 | -11.3%
33 | O=C(O)C1C2C=CC(O2)C1C(=O)NCCCn1ccnc1 (configuration not stated) | >57 | -4.7%
34 | COc1ccc(OC)c(NC(=O)Nc2cccc(Cn3cccn3)c2)c1 | >57 | 20.0%
35 | Cc1ccc(C)c(C(=O)n2cnnc2N)c1 | >57 | -1.7%
36 | C/C(Cl)=C\Cn1c(=O)c2c(nc3n2CCS3)n(C)c1=O | >57 | -6.3%
37 | COCCn1c(SCC(=O)c2ccc3c(c2)OCCO3)nnc1-c1ccco1 | >57 | -13.3%
38 | CCN(CC)CC#CC(C)OCOCC#CCOC (configuration not stated) | . | -8.0%
39 | CC(=O)NCc1nc2ccccc2n1C(C)C | >57 | -4.0%
40 | O=c1[nH]c(-c2ccncc2)nc2ccccc12 | >57 | -11.2%
41 | COc1ccccc1NCCC(=O)OCC(=O)Nc1ccc(Cl)cn1 | >57 | -2.9%
42 | CCc1ccc(N2CC(C(=O)Nc3cc(C)ccc3F)CC2=O)cc1 (configuration not stated) | >57 | ?
43 | Cc1c(NC(=O)C(C)Sc2nc3ccccc3c(=O)n2CCO)c(=O)n(-c2ccccc2)n1C (configuration not stated) | >57 | 4.8%
44 | COc1cccc(-c2ccc(=O)n(CC(=O)Nc3cc4c(cc3NC(C)=O)OCCO4)n2)c1 | >57 | -6.9%
45 | C=CCN(C(=O)Nc1ccc(F)cc1)C1CC(=O)N(c2ccc(OC)cc2)C1=O (configuration not stated) | >57 | -9.6%
46 | CCC(=O)N1c2ccccc2-c2nnc(SC)nc2OC1c1ccc(N(C)C)cc1 (configuration not stated) | >57 | ?
47 | O=C(Nc1ccc(F)cc1)C1CCN(c2nnnn2-c2ccccc2)CC1 | >57 | -20.7%
48 | COc1ccc(OC)c(/C=N/c2oc(-c3ccco3)c(-c3ccco3)c2C#N)c1 | >57 | 4.2%
49 | Cn1cc(Cl)c(-c2nc3ccccc3[nH]2)n1 | >57 | 7.4%
50 | COc1ccccc1NC(=O)c1ccc(C)s1 | >57 | 0.9%
51 | CC(=O)c1ccc(N2C(=NC(=O)C(C)C)SC3CS(=O)(=O)CC32)cc1 (configuration not stated) | >57 | -2.2%
52 | CC(C)[C@H](NC(=O)Nc1cccc(C(F)(F)F)c1)C(=O)O | >57 | 4.6%
53 | O=S(=O)(c1ccccc1)N1CCC2(CCN(c3ccccc3)CC2)CC1 | >57 | ?
54 | COc1cc2cc(Oc3ccc4ccc(=O)oc4c3)c(=O)oc2cc1O | >25.6 | ?
55 | Cc1ccc2nc(Nc3nc(C)cc(C(F)(F)F)n3)nc(C)c2c1 | >57 | -0.1%
56 | CC(C)(C)NC(=O)CSc1n[nH]c(=O)n1-c1ccccc1 | >57 | -3.4%
57 | COc1ccc2c(c1)sc1nc(-c3ccccc3)cn12 | >57 | .
58 | CC(=O)c1ccc(OCC(O)CN2CCN(Cc3ccc4c(c3)OCO4)CC2)cc1 (configuration not stated) | >57 | -16.9%
59 | COc1cc(-c2noc(CCCC(=O)NCc3ccco3)n2)cc(OC)c1OC | >57 | .
60 | CN(CC(=O)O)Cc1oc(CO)cc(=O)c1O | >57 | -8.4%[8 µM]

In the list so far, 3 have a Cl atom.
entry | SMILES | Prx2 Sm inh | LT uptake inh
36 | C/C(Cl)=C\Cn1c(=O)c2c(nc3n2CCS3)n(C)c1=O | >57 | -6.3%
41 | COc1ccccc1NCCC(=O)OCC(=O)Nc1ccc(Cl)cn1 | >57 | -2.9%
49 | Cn1cc(Cl)c(-c2nc3ccccc3[nH]2)n1 | >57 | 7.4%

(listing goes on)
entry | SMILES | Prx2 Sm inh | LT uptake inh
61 | O=C(CSc1nnc(CN2CCOCC2)n1-c1ccccc1)Nc1ccc(Cl)cc1 | >57 | 2.2%
62 | COc1ccc(-n2c(=O)c(CCc3ccccc3)nc3cnc(N4CCOCC4)nc32)cc1 | >57 | ?
63 | Cc1cccc2cc(CN(Cc3cccs3)C(c3nnnn3C3CCCC3)C(C)C)c(=O)[nH]c12 (configuration not stated) | >57 | -12.0%
64 | CC(O)CCc1nc2ccc(C(=O)O)cc2[nH]1 (configuration not stated) | >57 | -25.9%
65 | Cc1ccc(S(=O)(=O)N2CCCC(C(=O)O)C2)s1 (configuration not stated) | >57 | 4.6%
66 | COC(=O)c1c(NC(=O)c2ccco2)sc(C)c1C | >57 | -6.1%
67 | O=C(O)c1cc2c([nH]c1=O)CCCC2 | >57 | -20.3%
68 | Cn1cccc1Cc1nnc(SCC(=O)Nc2cccc(Cl)c2)n1-c1ccc(F)cc1 | >57 | ?
69 | COc1cc(C2C3C(=O)N(Cc4ccccc4)C(=O)C3ON2c2ccccc2)cc(OC)c1OC (configuration not stated) | >57 | -6.1%
70 | Oc1ccc(C=NCC2COc3ccccc3O2)cc1 (configuration not stated) | . | -12.0%
71 | COC(=O)NC(c1ccco1)[C@@]1(C(=O)OC)CCCC1=O (some centres not stated) | . | -5.1%[8 µM]
72 | COc1ccccc1N1CCN(C(c2ccc(Cl)cc2)c2nnnn2C(C)(C)C)CC1 (configuration not stated) | >57 | -11.2%
73 | Cc1cc(C)c(C)c(S(=O)(=O)Nc2ccccc2C(=O)NCCCn2ccnc2)c1C | >57 | -8.3%
74 | CC(=O)NC1=NC(=O)/C(=C/N2CCCCC2)S1 | >57 | 11.3%
75 | Cc1nn(Cc2ccc(F)cc2)c(C)c1NC(=O)c1noc2c1CCCCC2 | >57 | 0.8%
76 | Cn1cccc1C(=O)OCC(=O)Nc1cc(C(C)(C)C)nn1-c1ccccc1 | >57 | 1.5%
77 | COC(=O)c1ccc(NC(=O)c2sc3nc(-c4ccccc4)cn3c2C)cc1 | >57 | 5.4%
78 | CCCCSc1c(C)c2cc3c(cc2[nH]c1=O)OCO3 | >57 | .
79 | Cc1nc2ccccc2c(=O)n1NC(=O)c1ccc(F)cc1Cl | >57 | 8.3%
80 | COc1ccc(C2C(C(=O)Nc3ccc(F)cc3)=C(C)Nc3nc(CCCO)nn32)cc1 (configuration not stated) | >57 | -22.1%
81 | CCOC(=O)C(NCc1ccc2c(c1)OCO2)(NC(=O)CC)C(F)(F)F (configuration not stated) | >57 | 8.9%
82 | COC(=O)C1CCN(C(=O)CCCOc2ccccc2)CC1 | >57 | 5.4%
83 | C=CCN1C(=O)C(O)(CC(=O)c2c(C)n[nH]c2C)c2cc(Br)ccc21 (configuration not stated) | >57 | -3.4%
84 | CC(C)CN1C(=O)NC(NC(=O)c2ccco2)(C(F)(F)F)C1=O (configuration not stated) | >57 | 2.4%
85 | CCC(=O)N1CCCc2cc(S(=O)(=O)N3CCN(c4ccccc4F)CC3)ccc21 | >57 | ?
86 | CC(C)CC(NC(=O)C1CCC(C)CC1)C(=O)N1CCN(c2ccccn2)CC1 (configuration not stated) | >57 | 10.2%
87 | COC(=O)c1ccc2c(c1)S(=O)(=O)NC(=NCc1ccco1)S2 | >57 | -11.7%
88 | CNC(=O)NC1CCCc2ccccc21 (configuration not stated) | . | 4.3%
89 | Cn1c(=O)[nH]c(=O)c2c1nc(NCCCn1ccnc1)n2Cc1ccc(F)cc1 | >57 | 15.5%
90 | CN(Cc1ccccc1)S(=O)(=O)c1ccc2c(c1)OCCO2 | >57 | -5.6%
91 | O=C(NCC1CCNCC1)c1ccncc1 | >57 | 9.4%
92 | C=CCn1c(=O)n(CCC#N)c(=O)n(CCC#N)c1=O | . | 6.5%
93 | Cn1c(=O)oc2cc(S(=O)(=O)N3CCCc4ccccc43)ccc21 | . | -19.2%
94 | C=C(C)Cn1c(CCCNC(=O)CCC)nc2ccccc21 | >57 | -2.8%
95 | Cc1[nH]nc2c1C1(CCOCC1)C(C#N)=C(N)O2 | >57 | -0.9%
96 | COC(=O)[C@H](CCSC)NC(=O)NC1CCN(Cc2ccccc2)CC1 | >57 | -24.6%
97 | CC(C)(/C=N/O)/[N+]([O-])=C/C=[N+](\[O-])C(C)(C)/C=N/O | >57 | -5.5%
98 | COc1cccc(Cn2c(=O)cnc3cnc(Oc4cccc(Cl)c4)nc32)c1 | >57 | ?
99 | CN(C(=O)C12CC3CC(CC(C3)C1)C2)C1(C)CCS(=O)(=O)C1 (configuration not stated) | >57 | -7.0%
100 | O=C(NCC1CCCO1)C1CCCCN1S(=O)(=O)c1ccc(F)cc1 (configuration not stated) | >57 | 0.6%
101 | COC(=O)CSc1ccccc1C(=O)OC | >57 | 8.6%
102 | O=C(Nc1nc(-c2nc3ccccc3s2)cs1)c1ccc(S(=O)(=O)N2CCOCC2)cc1 | >57 | ?
103 | COc1ccc(-c2cc(CCCC(=O)NCCc3ccc(OC)cc3OC)no2)cc1 | >57 | .
104 | CO[C@@H]1/C=C\O[C@]2(C)Oc3c(C)c(O)c4c(O)c(c(CN(C)C)c(O)c4c3C2=O)NC(=O)/C(C)=C\C=C[C@@H](C)[C@@H](O)[C@H](C)[C@@H](O)[C@H](C)[C@H](OC(C)=O)[C@@H]1C | >57 | 12.8%[8 µM]
105 | Cc1ccc(-c2nnc(N(C)C(=O)c3ccccn3)s2)cn1 | >57 | -2.1%
106 | COc1cccc(C2/C(=C(/O)c3ccncc3)C(=O)C(=O)N2CCCN(C)C)c1 (configuration not stated) | >57 | -4.2%
107 | COc1cc(C(=O)Nc2ccc(S(=O)(=O)Nc3cc(C)on3)cc2)cc(OC)c1OC | >57 | ?
108 | COc1ccc(CCNC2CCN(C)CC2)cc1OC | >57 | -30.6%
109 | CCOC(=O)c1cc(-c2nnc(SCC(=O)Nc3ccc(F)cc3)o2)c(C)nc1C | >57 | 4.2%
110 | COC(=O)c1cc(NC(=O)CN2C(=O)CSC2=O)ccc1Cl | >57 | -7.2%
111 | COc1ccccc1N1CCN(C(=O)CSc2ccc3c(C)cc(C)nc3n2)CC1 | >57 | ?
112 | COc1ccc(Cl)cc1NC(=O)c1c(-c2ccccc2)noc1C | >57 | ?
113 | Cc1ccc(-c2noc(C3CCCN(C(=O)c4ccccc4)C3)n2)o1 (configuration not stated) | >57 | -14.5%
